A1 inh: inhibitors of the anti-apoptotic protein A1, read as caspase activation; caspase activation, % (concentration not given with the values); MEF A1-2A-BIM cells, Caspase-Glo 3/7 luminescence, 3 h; percent of clofoctol response, vehicle zero; 330,000 tested, 0.066% active;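 active = over half of replicate activation scores above 10%, or exactly half above 10 with the replicate mean above 10; inconclusive = replicate mean below 10 yet half the replicates above 10; inactive = over half of replicates below 10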;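 note: wells of about 30 µL received 50 nL stock; many hits fall short of the cut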
RanGTP-Imp inh: disruptors of Ran-importin-beta complex formation – biochemical, FRET, CFP-Ran, YFP-importin-beta, homogeneous, primary screen; inhibition, % (no concentration beside the values); cell-free CFP-Ran/YFP-importin-beta FRET ratio; 300,000 tested, 1.1% active; AID 2216;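 active = most replicates above 15%; inconclusive = exactly half above 15%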;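 note: 0% = DMSO wells and 100% = Ran loaded with GDP instead of GTP; wells of about 40 µL received 100 nL stock; the first replicate is given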
AF4-AF9 inh: MLL-AF4/AF9 protein interaction inhibition; AID 651704; 350,000 tested, 0.47% active; AlphaScreen, biotin-AF4 peptide binding to FLAG-AF9; inhibition, % at 10 µM; P42568;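 active = every replicate reaching a set inhibition limit, whatever the replicate mean, cut at about 25% in these data; inconclusive = mean inhibition reaches that limit but some replicates miss it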;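 note: 0% = plate neutral control median and 100% = total signal loss; the record names both 10 and 1 µM as test concentration; the first replicate is given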
Target sequence (P42568 whole entry, looked up): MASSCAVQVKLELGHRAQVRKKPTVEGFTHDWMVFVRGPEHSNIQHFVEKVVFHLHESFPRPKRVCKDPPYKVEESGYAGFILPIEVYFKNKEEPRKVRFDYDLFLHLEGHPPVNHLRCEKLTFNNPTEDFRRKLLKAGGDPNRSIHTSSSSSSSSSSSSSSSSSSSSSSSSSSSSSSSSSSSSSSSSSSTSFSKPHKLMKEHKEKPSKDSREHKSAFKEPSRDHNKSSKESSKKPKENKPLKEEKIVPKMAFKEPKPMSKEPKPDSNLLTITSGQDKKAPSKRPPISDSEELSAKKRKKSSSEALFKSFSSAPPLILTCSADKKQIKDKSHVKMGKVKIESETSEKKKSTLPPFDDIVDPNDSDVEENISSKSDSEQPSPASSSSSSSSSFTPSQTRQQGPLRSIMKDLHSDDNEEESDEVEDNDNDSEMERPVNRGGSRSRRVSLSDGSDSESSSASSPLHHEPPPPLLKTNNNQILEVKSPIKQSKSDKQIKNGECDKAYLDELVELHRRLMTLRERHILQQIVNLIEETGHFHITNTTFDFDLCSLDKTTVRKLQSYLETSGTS
T cruzi inh: T. cruzi replication inhibition; AID 1885; inhibition, % (concentration not given with the values); 300,000 tested, 1.4% active; T. cruzi beta-gal in NIH3T3, luminescence, 90 h;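 active = mean inhibition across valid replicates above about 55%, limit read from the data; inconclusive = mean below that limit but half or more replicates reach it; inactive = mean below it, under half of replicates reach it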;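 note: signal also drops with host cell toxicity which is not excluded here; 0% = plate median of DMSO wells and 100% = zero luminescence signal; higher percent means less beta-gal luminescence so fewer parasites; stock transfer was 50 nL into about 50 µL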
LANA-H2B inh: blocks KSHV LANA binding to histone H2A/H2B. Q9QR71. cell-free LANA-H2A/H2B peptide, fluorescence polarization. inhibition, % (concentration not given with the values). 320,000 tested, 0.6% active; in the data active = inhibition mostly above about 10%, no sharp cut-off; inactive = mostly below about 6.7%;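 note: stock transfer was 7.5 nL into about 10 µL; 0% = median of vehicle wells and 100% = median of positive control wells; one replicate is shown; the record names a cut of 25% in any replicate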
Beta cell apopt: beta cell apoptosis inhibition. INS-1E cytokine-induced death, ATP luminescence, 48 h; percent of positive-control rescue, neutral wells zero. 300,000 tested, 0.8% active. protection from apoptosis, % (concentration not given with the values). AID 435005;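 active = all replicates at 75% or more, or half of them and the mean; inconclusive = half reach 75% but not the mean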;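 note: 0% = cytokine-treated negative control wells and 100% = positive control rescue; higher means more ATP so stronger rescue from cytokine killing; wells of about 40 µL received 100 nL stock; the first replicate is given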
Vif A3G: HIV-1 Vif–A3G interaction blockers – biochemical, TR-FRET, GST-Vif 1-94, biotin-A3G peptide, dose response retest, primary screen (AID 1117319). TR-FRET GST-Vif / biotin-A3G peptide binding; higher % means a stronger effect; test concentration not given here; strong numbers were not always called active. one-dose inhibition, %; IC50 in µM for titrated hits. 260,000 tested, 0.57% active;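 active = above the screen mean plus three standard deviations and confirmed in dose response; inconclusive = results disagree or hit not tested in dose response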;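 note: Vif residues 1-94 fused to GST binding biotinylated APOBEC3G peptide 110-148; 0% = full assay without inhibitor and 100% = GST in place of GST-Vif; retest series ran down from 100 µM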
Calb FLC: C. albicans growth modulation with fluconazole | C. albicans CaCi-2 (fluconazole-resistant clinical isolate) + fluconazole, Alamar Blue growth, 48 h | growth inhibition, % (concentration not given with the values) | 300,000 tested, 0.57% active;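 active = most replicates above 75%; inconclusive = exactly half above 75%; inactive = most below 75%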;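 note: all wells also contain fluconazole at 8 µg/ml as a sub-toxic cotreatment; 0% = median of DMSO wells and 100% = median of geldanamycin control wells; wells of about 8 µL received 7.5 nL stock; the first replicate is given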
* marks the source's active call; other numbers are inactive results; ? = inconclusive; / = not tested or not shown.

SMILES | A1 inh | RanGTP-Imp inh | AF4-AF9 inh | T cruzi inh | LANA-H2B inh | Beta cell apopt | Vif A3G | Calb FLC
Cc1nc2cc(-c3ccc(F)cc3)[nH]n2c(=O)c1C | -4.9 | -2.5 | -7.5 | 22 | 3.5 | 3 | 25% | 7
Cc1ccc(CN2CCN(CC(=O)N3CCc4ccccc4C3)C2=O)cc1 | -0.5 | -3.5 | / | 4 | -5.6 | -1 | -1% | -1
CCOC(=O)C1=C(C)Nc2ccccc2N/C1=N\S(=O)(=O)c1ccc(Cl)cc1 | -0.4 | / | 1.6 | / | 2.8 | 1 | 8% | /
Cc1ccc(S(=O)(=O)c2nc(-c3ccccc3)oc2NCc2cccnc2)cc1 | 0.7 | -1.3 | / | 10 | -3.7 | 1 | 6% | 33
Cc1cccc(CN2CCC(N3CC(C)OC(C)C3)CC2)c1 (stereo not drawn) | 0.3 | 3.7 | -1.0 | 5 | -1.0 | -3 | / | -12
Cc1csc2c(N3CCC(C(=O)O)CC3)ncnc12 | 0.6 | -5.4 | / | 0 | -2.8 | -7 | -4% | -7
O=C(NCC1CCCCC1)c1ccc([N+](=O)[O-])cc1 | 0.1 | 0.3 | 1.2 | 2 | 0.9 | -1 | -5% | -6
Brc1cc(Br)cc(CN2CCSCC2)c1 | -0.6 | -1.2 | 1.6 | 15 | -1.6 | -6 | 3% | -3
O=C(c1ccco1)N1CCN(C(c2cccs2)c2nnnn2C2CCCC2)CC1 (stereo not drawn) | -0.1 | 8.1 | / | -2 | -0.3 | / | 3% | -5
CCOc1ccc(OCCC(=O)OCC(=O)NC2CCCC2)cc1 | 0.7 | / | -6.6 | / | -5.5 | -3 | 3% | /
CCOC(=O)C1=C(C)NC(=O)NC1c1cc(Br)c(O)c(OC)c1 (stereo not drawn) | 0.9 | -1.2 | / | 6 | -3.4 | -1 | 3% | 0
CC(C)(C)c1ccc(C(=O)Nc2ccc(O)c3c(=O)cc(-c4cccc(Cl)c4)oc23)cc1 | ? | -6.8 | 2.1 | 7 | 3.0 | 2 | 1% | -10
O=C(c1nn2c(C(F)(F)F)cc(-c3ccc(F)cc3)nc2c1Cl)N1CCOCC1 | -0.2 | 0.4 | / | 0 | -5.0 | -6 | 11% | -11
CSc1ccc(CN2CCC(N3CC(C)OC(C)C3)CC2)cc1 (stereo not drawn) | 0.2 | -2.2 | 0.3 | 11 | 3.5 | 0 | / | -2
O=NNc1nc2ccccc2n1Cc1ccccc1 | 0.0 | -2.6 | 3.1 | ? | 3.4 | 31 | / | 11
CCc1ccc(N2CN(Cc3ccco3)CNC2=S)cc1 | 0.8 | 3.3 | 1.0 | / | 10 | 0 | -6% | -16
Cc1nc2c(-c3ccccc3)c(C)[nH]n2c(=O)c1Cl | 0.9 | ? | / | -3 | 4.9 | -2 | -1% | 1
O=C(NC(=O)c1ccc(F)cc1F)Nc1ccc(Cl)cc1 | -0.9 | 0.9 | -2.4 | -6 | -5.3 | 4 | -7% | 0
CCOC(=O)c1csc(NC(=O)C2CCCCC2)n1 | -0.3 | 6.7 | -0.8 | 0 | 3.6 | -1 | -2% | 0
O=C(Nc1cccc(-c2nc3ccccc3s2)c1)c1cccs1 | 0.3 | 25* | / | 9 | 0.5 | -3 | -5% | 14
O=C(c1ccc(O)cc1)c1ccc(Cl)cc1 | -0.7 | 1.7 | / | -18 | -0.3 | -1 | -1% | 2
COc1ccc(N2C(=O)CC(c3ccccc3)C2=O)cc1 (stereo not drawn) | 0.5 | 3.6 | -1.2 | -4 | 7.3 | -3 | -8% | -3
CC(C)Cc1nnc(NC(=O)CS(=O)(=O)Cc2ccccc2)s1 | 0.1 | ? | -2.3 | -22 | -0.4 | -8 | / | 13
COc1cccc2cc(C(C)N(CCCN3CCOCC3)C(=S)Nc3ccccc3C)oc12 (stereo not drawn) | -0.7 | 6.2 | 1.0 | 6 | 7.1 | -7 | 3% | -8
O=C(COC(=O)[C@@H]1CC(O)CN1S(=O)(=O)c1ccc(Cl)c(Cl)c1)NC(=O)NCc1ccccc1 (stereo partly drawn) | 0.6 | / | 11 | / | -3.2 | -2 | 11% | /
CC(C)(C)NC(=O)C(OC(=O)c1cccs1)c1ccc(F)cc1 (stereo not drawn) | 0.0 | -1.2 | -2.7 | -10 | 5.3 | -3 | -10% | -22
O=C(O)CSCC(=O)Nc1cccc2ccccc12 | -0.4 | -1.0 | 0.2 | -16 | 2.4 | 1 | 3% | -7
O=S(=O)(c1ccccc1)N(C1=NCCS1)S(=O)(=O)c1ccccc1 | -0.1 | -0.8 | / | -3 | 3.5 | -2 | 3% | 12
COc1ccccc1CNc1nc(SC)ncc1CO | 0.3 | 0.5 | 1.4 | 1 | -1.5 | -6 | 18% | -4
O=C(CCCn1c(=O)[nH]c2cc(Cl)ccc2c1=O)NCCCN1CCCC1=O | -0.3 | 3.9 | / | -11 | 1.4 | -2 | -1% | 0
Cc1cc(C(F)(F)F)c2c(N)c(C(=O)Nc3cc(C)on3)sc2n1 | 0.3 | -3.9 | / | 8 | 2.7 | -3 | ? | 0
O=[N+]([O-])c1ccc(CSc2nnc3ccccn23)cc1 | 0.7 | 0.4 | 0.7 | 0 | -3.4 | 0 | 0% | -6
CCOC(=O)c1nnn(CC(=O)N2N=C(c3cc(C)ccc3C)CC2c2ccc(OC)cc2)c1C(=O)OCC (stereo not drawn) | -0.5 | -1.7 | / | 28 | -4.2 | 23 | 2% | -1
Cc1cc(C)cc(Oc2coc3c(CN(C)C)c(O)ccc3c2=O)c1 | -0.3 | -0.3 | 1.2 | -7 | 6.8 | -9 | / | 9
Cc1oc(C(=O)O)cc1COc1ccc2c(C)cc(=O)oc2c1 | -0.2 | 1.0 | / | -15 | -1.5 | -3 | -4% | -4
Fc1ccc(NC(=S)N/N=C/c2ccc(F)c(F)c2)c(F)c1 | 0.0 | -4.0 | / | 7 | -0.7 | -2 | -2% | 5
C=CCn1c(O)c(N=NC(=O)OC(C)(C)C)c2ccccc21 | -3.0 | -1.7 | / | 13 | 5.5 | -9 | -2% | 7
Cn1c(=S)[nH]c2ccccc21 | 0.1 | / | / | -10 | -2.0 | -5 | -1% | -28
COc1cc(C(O)CO)ccc1OS(=O)(=O)O (stereo not drawn) | 0.0 | / | -4.5 | / | 1.0 | 0 | / | /
Cc1cc(S(=O)(=O)N(Cc2ccccc2Cl)c2ccc3c(c2)CCC3)ccc1-n1cnnn1 | 0.3 | -0.3 | / | 22 | 3.6 | 20 | 19% | -7
Cn1c(SCC(=O)NCc2ccccc2)nnc1-c1ccc(NC(=O)CCc2ccccc2)cc1 | -1.6 | 0.2 | / | -3 | -3.8 | 2 | -2% | 0
CC1CCCC(NC(=O)CCS(=O)(=O)c2cc3c(cc2Cl)NC(=O)CO3)C1C (stereo not drawn) | -1.0 | 0.1 | -2.1 | 14 | -11 | -4 | -5% | 0
CC1(c2ccc3ccccc3c2)NC(=O)N(CC(=O)Nc2cccc(S(=O)(=O)N3CCOCC3)c2)C1=O (stereo not drawn) | 0.5 | -1.4 | -0.6 | -6 | 11 | 3 | -3% | 10
CCN(CC)S(=O)(=O)c1cccc(-c2nnc(SCc3nnc(-c4cccs4)o3)n2N)c1 | 0.3 | -2.5 | / | 7 | 1.1 | -6 | 1% | 6
O=C(NCCOc1ccccc1)c1ccccc1[N+](=O)[O-] | 0.0 | 0.4 | 1.3 | -11 | -4.1 | -10 | -2% | -15
COc1ccc(S(=O)(=O)N2CCN(CC3CC=CCC3)CC2)cc1 (stereo not drawn) | 0.1 | 0.9 | -0.1 | 16 | -4.5 | / | / | 0
Cc1ccc(OCCC(=O)NCCc2ccc(S(N)(=O)=O)cc2)cc1 | 1.3 | 6.7 | / | -10 | 1.8 | 2 | / | 1
Cc1ccc(S(=O)(=O)NCCC(=O)Nc2ccc(C)cc2C(=O)c2ccccc2)cc1 | -0.5 | -2.2 | / | -2 | 1.0 | -5 | -14% | -11
Cc1ccc(-c2csc3ncnc(NS(=O)(=O)c4ccc(Cl)cc4)c23)cc1 | -0.9 | -5.2 | 2.5 | 7 | -11 | 5 | ? | 46
COCCN(CCOC)C(=O)Nc1ccc(Cl)cc1 | 0.1 | -1.4 | 0.7 | 15 | 0.7 | 0 | 5% | 1
Following part
SMILES | A1 inh | RanGTP-Imp inh | AF4-AF9 inh | T cruzi inh | LANA-H2B inh | Beta cell apopt | Vif A3G | Calb FLC
COc1ccc(C(=O)NCC(=O)N/N=C/c2cccnc2)cc1 | 2.0 | -2.0 | -17 | -17 | -0.3 | -6 | / | -5
COc1cccc(OC)c1C(=O)OCC(=O)NCCCc1ccccc1 | -0.1 | -3.3 | -2.6 | -7 | 3.4 | -4 | -16% | -4
CCN(CC)S(=O)(=O)c1ccc(Cl)c(NC2=NCCCCC2)c1 | 0.1 | 3.6 | 0.0 | 13 | -1.1 | 3 | 1% | -26
COc1cccc2cc(C(=O)C3=C(O)C(=O)N(CCN4CCOCC4)C3c3cccs3)oc12 (stereo not drawn) | 0.3 | 0.2 | / | -12 | 0.1 | -14 | 0% | 1
Cc1c(NC(=O)CSc2nnc(-c3cccnc3)n2N)c(=O)n(-c2ccccc2)n1C | -0.3 | / | -1.8 | / | 0.9 | -5 | -1% | /
Cc1ccc(C(C)(C)C)c(OCCOCCN2CCCC2)c1 | 1.2 | 2.9 | 0.0 | 16 | 3.2 | -6 | 3% | -2
Cc1ccc(OCC(=O)Nc2ccc(CN3CCOCC3)cc2)cc1C | 0.3 | 2.9 | -0.8 | -1 | -4.5 | 6 | / | -11
O=C(NCc1ccco1)c1ccc(-c2ccccc2Cl)o1 | -0.4 | 1.0 | 3.8 | -1 | -1.6 | -8 | 11% | 9
O=C(N/N=C/c1ccc(O)c(O)c1)N/N=C/c1ccc(O)c(O)c1 | -0.3 | 0.4 | -3.8 | -35 | 4.4 | 8 | / | -2
CCOC(=O)N1CCN(C(=O)c2cn(CC(C)C)c(=O)c3c2c2ccccc2n3C)CC1 | -1.2 | -1.7 | / | 20 | 2.0 | -4 | 26% | 10
C=CCn1c(-c2cc(-c3ccccc3)sc2N)n[nH]c1=S | 0.1 | ? | 1.2 | 6 | -2.7 | -3 | 4% | 25
COc1ccccc1OCCOCCN1CCCC1 | ? | ? | 2.2 | -3 | 3.9 | -46 | / | 2
CC(C)c1ccc(C(=O)N2CCN(CCO)CC2)cc1 | -0.7 | 4.6 | / | 4 | -3.9 | -5 | 6% | ?
CC(C)(C)NC(=O)N1CCN(c2nc3ccc(Cl)cc3s2)CC1 | -0.7 | -2.0 | -2.6 | 18 | -3.6 | / | 1% | 12
CN(CP(=O)(O)C(O)c1ccccc1)S(C)(=O)=O (stereo not drawn) | 0.1 | 6.0 | / | -16 | 1.0 | / | 5% | -2
CC1CN(C(=O)c2cc(S(=O)(=O)N3CCCC3)c(Cl)cc2Cl)CC(C)O1 (stereo not drawn) | 0.7 | ? | / | 6 | -3.4 | 0 | 0% | 4

Screening results from PubChem.
